nsP2pro primary: inhibitors of chikungunya virus nsP2 protease. Q8JUX6. FRET peptide cleavage, nsP2pro, fluorescence 1 h. Potency, µM (highest dose often 24.9 µM), inactives show at the top dose activity change, negative = inhibition, actives largely listed as inhibitors. 1.1% of 31,000 active; active means well fitted inhibition curve with a large enough effect; inconclusive means small, poorly fitted or top-dose-only effect; inactive means no such curve, though single readings can be large or run the other way; further: nearly all actives have a fitted effect of over 60% in size; a reference inhibitor and vehicle were the controls
Starred values were filed as active, the others as inactive; i = inactive; u = inconclusive; & = joins results of further samples; [ ] = another dose, or the depositor's remark. On the % scale 0 is the no-effect control and ±100 the full control effect; potency means the concentration at half of the fitted maximal effect. This is a subset; rates above refer to the full screens.

SMILES | nsP2pro primary
N[C@H]1CO[C@H]2[C@@H]1OC[C@@H]2n1cc(-c2ccccn2)nn1 | i
CCN(CC)CCn1c(-c2ccccc2)nc2c(NC3CCCCC3)nc(C)nc21 | 1%
COc1ccc(C2N3CC4(C)CN2CC(c2ccccc2)(C3)C4=O)cc1OC (stereo unspecified) | -18%
COc1ccccc1-c1nc2ccccc2s1 | i
Cc1cn([C@H]2C[C@H](N[S+](=O)([O-])Cc3cccc(Cl)c3)[C@@H](CO)O2)c(=O)[nH]c1=O | -6%
CCOC(=O)c1[nH]c(C)c(CCC(=O)N2CCN(c3cccc(OC)c3)CC2)c1C | -17%
CC(C)c1nn2c(=O)cc(COC(=O)c3cccs3)nc2s1 | -21%
CC(C)(C)OC(=O)N[C@H]1CCCCC/C=C\[C@@H]2C[C@@]2(C(=O)NS(=O)(=O)C2CC2)NC(=O)[C@@H]2C[C@@H](OC(=O)N3Cc4cccc(F)c4C3)CN2C1=O | -5%&-8%
Cn1c(/C=C/C(=O)NO)ccc1/C=C/C(=O)c1cccc(F)c1 | 137%[activator]
CCN(CC)CCCCCCNc1cc(OC)cc2c(C)ccnc12 | 23%
O=C(CCc1c[nH]c2ccccc12)NC1CCc2n[nH]c(=O)n2CC1 (stereo unspecified) | i
C[C@@H]1O[C@@H](O[C@H]2[C@H](O[C@H]3[C@H](O[C@H]4CC[C@@]5(C=O)C(CC[C@]6(C)C5CC=C5C7CC(C)(C)C[C@@H](O)[C@]7(C)CC[C@]56C)C4(C)C)O[C@H](C(=O)O)[C@@H](O)[C@@H]3O)OC[C@@H](O)[C@@H]2O)[C@H](O)[C@H](O)[C@H]1O (stereo partly specified) | 11%[5.1 µM]
Cc1[nH]c2ccc(Cl)cc2c1CCN(C)C | -19%
COc1ccc(OC)c(C2N=C(N)Nc3nc4ccccc4n32)c1 (stereo unspecified) | -5%
N#Cc1cccc(CN2CCCC(CNS(=O)(=O)Cc3ccccc3)C2)c1 (stereo unspecified) | -13%
O=C(OC[C@H]1O[C@@H](Oc2ccc(O)cc2CO)[C@H](O)[C@@H](O)[C@@H]1O)c1ccccc1 | -9%[10 µM]
COc1cc(/C=C/c2cc(O)cc(O[C@@H]3O[C@H](CO)[C@@H](O)[C@H](O)[C@H]3O)c2)ccc1O | -6%[10 µM]
N#Cc1c2nc3ccccc3nc2n2ccc(NC(=O)c3cccs3)cc12 | 25%
NCCCNCCCCNC(=O)C(O)NC(=O)CCCCCCN=C(N)N (stereo unspecified) | -4%
CN1CCOc2cc(S(=O)(=O)N3CCN(S(=O)(=O)c4c(F)cccc4F)CC3)cnc21 | -1%

By substructure, the entries above with fluorine.
SMILES | nsP2pro primary
CC(C)(C)OC(=O)N[C@H]1CCCCC/C=C\[C@@H]2C[C@@]2(C(=O)NS(=O)(=O)C2CC2)NC(=O)[C@@H]2C[C@@H](OC(=O)N3Cc4cccc(F)c4C3)CN2C1=O | -5%&-8%
Cn1c(/C=C/C(=O)NO)ccc1/C=C/C(=O)c1cccc(F)c1 | 137%[activator]
CN1CCOc2cc(S(=O)(=O)N3CCN(S(=O)(=O)c4c(F)cccc4F)CC3)cnc21 | -1%

The main list resumes, starting 2 compounds before the break.
SMILES | nsP2pro primary
NCCCNCCCCNC(=O)C(O)NC(=O)CCCCCCN=C(N)N (stereo unspecified) | -4%
CN1CCOc2cc(S(=O)(=O)N3CCN(S(=O)(=O)c4c(F)cccc4F)CC3)cnc21 | -1%
O=c1c2ccccc2nc(/C=C\c2ccc(F)cc2)n1-c1ccccc1F | -12%
CC(C)CC(=O)Nc1nc2nc(-c3ccccc3)cc(=O)n2[nH]1 | -12%
Cc1ccc(N(CC(=O)N[C@H]2C[C@@H]3OCC[C@H]23)S(C)(=O)=O)cc1 | i
Cc1ccc(Cl)cc1N1CCN(C(=O)c2cnc3c(-c4ccc(F)cc4)c(C)nn3c2C)CC1 | 4%
CN(C)CCC(=O)N1Cc2ccccc2CC2(CCCN2Cc2cccnc2)C1 (stereo unspecified) | -4%
Cc1ccc(S(=O)(=O)c2nnn(CC(=O)Nc3ccccc3C)c2N)cc1 | -18%
CS(=O)(=O)c1ccc([C@@H](CC2CCCC2)C(=O)Nc2cnccn2)cc1Cl | -4%
COCC1CN(S(=O)(=O)Cc2cccc(F)c2)CC12CCNCC2 (stereo unspecified) | -12%
CCOc1ccccc1NC(=O)N1CCc2cc(S(=O)(=O)N3CCC(C)CC3)ccc21 | u
Cc1cc(C)nc(NC(=S)N2CCN(c3nsc4ccccc34)CC2)c1 | u
CC1=C(CCC(C)O[C@@H]2O[C@H](CO)[C@@H](O)[C@H](O)[C@H]2O)C(C)(C)CC(O)C1 (stereo partly specified) | 55%[activator]
COc1cc2c(cc1OC)CC(=O)N(CCCNC[C@H]1Cc3cc(OC)c(OC)cc31)CC2 | 4%
CCN(CC)C(=O)[C@@H]1CCC[C@@H](NC(=O)Nc2c(C)noc2C)CN(C)C(=O)C1 | -2%[39.2 µM]
Cc1ccc(CN2CCN(C3CCNCC3)C(=O)C2=O)cc1 | -16%
Cc1oc(-c2cccc(Cl)c2)nc1CN1CCC(C(=O)NC(C)c2ccccc2)CC1 (stereo unspecified) | -15%
CCOc1cc(C(=O)N2CCC(N3CCN(C)CC3)CC2)ccc1Nc1ncc2c(n1)N(C1CCCC1)c1ccccc1C(=O)N2C | 143%[activator]
COc1ccccc1CNC(=O)C(Cc1ccccc1)NS(=O)(=O)c1ccc2c(c1)oc(=O)n2C (stereo unspecified) | -18%
COc1ccc(C(F)(F)F)cc1NC(=O)C(OC(=O)CNC(=O)c1ccccc1)c1ccccc1 (stereo unspecified) | -6%
O=C(Nc1ccc2ccccc2c1)Nc1nnc(-c2ccccc2)s1 | 2%
CCc1noc([C@@H]2CC(F)(F)CN2C(=O)c2ccncc2F)n1 | -11%
COc1c(F)cccc1CN1CCOc2cc([S+](N)(=O)[O-])ccc2C1 | 3%[39.2 µM]
Cc1nc2c(C(=O)NCCc3ccc(Cl)cc3)cnn2c(C)c1Cc1ccc(F)cc1 | -7%
Cc1ccccc1-c1nc(Cn2ccnc2C(C)C)c(C)o1 | i
O=C(Nc1cc(Cl)ccc1Cl)c1cc(S(=O)(=O)N2CCCc3ccccc32)ccc1F | -6%
CCCCN(CC)C(=O)c1cc2c(=O)n3ccccc3nc2n1C | -19%
CCc1ccc(CNc2ccc3c(c2)ncn3C(C)(C)C)cc1 | -4%
C=C(C)C1CC[C@]2(C(=O)O)CC[C@]3(C(=O)O)[C@H](CCC4[C@@]5(C)CC[C@H](O)C(C)(C)C5CC[C@]43C)C12 (stereo partly specified) | 12%[10 µM]
CN1C(=O)CCCCC1C(=O)NCCN1CCCCC1 (stereo unspecified) | 3%
Cc1nnc(NC(=O)CSc2nnc3c(n2)[nH]c2ccccc23)s1 | 2%
Cc1ccc(-c2onc(C)c2C)cc1S(=O)(=O)Nc1ccc(Cl)cn1 | -13%
Cc1nc(N2CCOCC2)c2nc(-c3ccccc3)n(CC3CCN(C)CC3)c2n1 | -7%
COc1ccc(NC(=O)CSc2oc(-c3cccs3)nc2S(=O)(=O)c2ccccc2)c(OC)c1 | -28%
Cc1occc1CNc1ncnc2ccc(-c3ccc4c(c3)OCO4)cc12 | i
O=[S+]([O-])(Nc1ccccc1F)c1cccc(NC/C=C/c2ccccc2)c1 | 3%
CC(C)(C)c1ccc2c(c1)N(CC(=O)NCCCN1CCN(c3ccccc3F)CC1)C(=O)CO2 | -7%
O=C(c1ccc(Cl)cc1)N(Cc1ccco1)Cc1ccco1 | -9%
COc1ccc(NC(=O)C(NS(=O)(=O)c2cccc3nsnc23)C(C)C)cc1 (stereo unspecified) | -14%
O=C(NCc1ccc(Cl)cc1)NC1COc2ccccc2C1 (stereo unspecified) | -15%
O=C1CN(C(=O)c2ccc(S(=O)(=O)N3CCCCC3)cc2)C(c2ccc(F)cc2)c2cc(Cl)ccc2N1 (stereo unspecified) | -11%
CC(=O)Nc1cccc(CN2CCC(N3CCCNC3=O)CC2)c1 | -1%[39.2 µM]
COc1ccc(C2=Nn3c(nnc3-c3ccccc3Cl)SC2)cc1OC1CCCC1 | -1%
COc1c(C)cnc(Cn2cc(C#CCC(C)(C)O)c3c(Cl)nc(N)nc32)c1C | u
O=C(OCc1ccccc1)c1cccnc1 | -4%
FC(F)(F)c1ccc(CN2CCCC3(CC(c4ccccn4)=NO3)C2)cc1 (stereo unspecified) | -6%
c1ccc(-c2[nH]ncc2-c2ccnc3ccccc23)nc1 | 161%[activator]
O=C(c1ccc2ncccc2c1)N1CCOC(c2ccc(Cl)c(Cl)c2)C1 (stereo unspecified) | 3%
O=C(NC1CCCCCC1)c1cc(-c2cc(Cl)cc(Cl)c2)c2nncn2n1 | 0%
O=C(Cc1ccc(Cl)c(Cl)c1)Nc1ccc(S(=O)(=O)Nc2cncnc2)cc1 | i
COc1cccc(NC(=O)C(OC(=O)CNC(=O)c2ccccc2)c2ccccc2)c1 (stereo unspecified) | -1%
COc1ccccc1C(=O)N1CCC(C(=O)N2CCC(c3nc4ncccc4[nH]3)C2)CC1 (stereo unspecified) | 2%
Cc1ccc(-n2ncc(C(=O)N3CCc4ccccc4C3)c2C2CCN(C(=O)OC(C)(C)C)CC2)cc1C | -21%
COc1ccccc1N1CCN(c2ncnc3n[nH]c(Br)c23)CC1 | -8%
Cc1ccc(NC(=O)CSc2nccn2C2CCCC2)cc1Cl | -28%
Cc1cc(C)c2[nH]c(CN3CCC(N)C3)cc(=O)c2c1 (stereo unspecified) | -14%
COc1ccc(OC)c(CCNc2nccn(-c3ccc(C)c(C)c3)c2=O)c1 | -11%
COc1ccc(C(=O)NCCn2cc(SCC(=O)Nc3ccc4c(c3)OCCO4)c3ccccc32)cc1 | -17%
CCC(CC)C(=O)NC[C@H]1O[C@@H](CC(=O)N2CCC(C)CC2)[C@H](O)[C@@H]1O | -17%[39.2 µM]
O=C(O)Cc1cn(C2OCC(O)C(O)C2O[C@@H]2O[C@H](CO)[C@@H](O)[C@H](O)[C@H]2O)c2ccccc12 (stereo partly specified) | 9%[10 µM]
CCCCN(CCCC)CCC(O)c1cc2c(Cl)cc(Cl)cc2c2cc(C(F)(F)F)ccc12 (stereo unspecified) | 24%
CCOC(=O)c1c(NC(C)=O)c2c3c(sc2n1Cc1nc(-c2cccc(Cl)c2)oc1C)CCCC3 | -20%

A few values from the entries so far:
COc1ccc(C2=Nn3c(nnc3-c3ccccc3Cl)SC2)cc1OC1CCCC1 | nsP2pro primary = -1%
O=C(OCc1ccccc1)c1cccnc1 | nsP2pro primary = -4%

(further entries)
SMILES | nsP2pro primary
N#Cc1c(-c2ccc3ccccc3c2)no[n+]1[O-] | i
COc1cc(OC)cc(-n2c(=O)c3sccc3n(Cc3c(C)cc(C)cc3C)c2=O)c1 | -4%
CCS(=O)(=O)Nc1ccc(C2(C(=O)NCc3cccc(Cl)c3)CCC2)cc1 | i
COc1ccc(Cl)cc1C(=O)N(C)C1CCc2nn(C)c(=O)n2CC1 (stereo unspecified) | 5%
Cc1nnc(N2CCC(C(=O)Nc3ccc(F)cc3)CC2)c2nn(-c3ccc(Cl)cc3)c(C)c12 | -11%
Cc1ccc2oc(=O)c3cnn(CC(=O)Nc4ccc(Br)cc4C)c3c2c1 | -10%
COc1ccc2c(c1)C(CN1CCN(CC(=O)OC(C)(C)C)CC1)=CC(C)(C)O2 | 2%
CN(C)CC(O)c1cc2n(n1)CCN(C(=O)c1cc(=O)[nH]c(=O)[nH]1)C2 (stereo unspecified) | i
CC(=O)Nc1cc(-c2ccccc2)nn1Cc1cccc(Cl)c1 | -4%
CCNC(=O)Nc1ccc(OCC(=O)N2CCN(c3ccccn3)CC2)nc1 | -14%
CC(C)(C)OC(=O)N[C@@H](Cc1ccc(O[S+](=O)([O-])c2cccc3cnccc23)cc1)C(=O)N1CCN(c2ccccc2)CC1 | 0%
COc1ccc(Cl)cc1NC(=O)c1cc2c(=O)n3ccccc3nc2s1 | -18%
O=C(NCc1ccco1)[C@@H]1Cc2nc[nH]c2CN1CCCc1ccccc1 | -46%[39.2 µM]
COc1ccc(-n2c(SCC(=O)NCc3ccc(F)cc3)nc3c([nH]c4ccccc43)c2=O)cc1 | -14%
CCOCC(=O)Nc1nn(-c2ccc(F)cc2)c2cccc(N3CCOC3=O)c12 | -2%
Cc1cccc(C(=O)N2CC(Oc3ccc(-c4noc(C5CCOCC5)n4)cc3)C2)c1 | -3%
COCc1noc(CCNc2nc(C)nc3c2cnn3C)n1 | i
CC(=O)N1CCN(Cc2snnc2C(C)C)CC(O)C1 (stereo unspecified) | -12%
COCC(=O)NC1(Cc2cc(-c3ccc(OC)cc3)on2)COC1 | i
Cc1nc(C)c(C(=O)N2CCC3(CC2)CC(N(Cc2ccccc2)C2CC2)CCO3)s1 (stereo unspecified) | i

Part of the list above in order of formula weight, smallest number first:
SMILES | nsP2pro primary
N#Cc1c(-c2ccc3ccccc3c2)no[n+]1[O-] | i
CCNC(=O)Nc1ccc(OCC(=O)N2CCN(c3ccccn3)CC2)nc1 | -14%
CCS(=O)(=O)Nc1ccc(C2(C(=O)NCc3cccc(Cl)c3)CCC2)cc1 | i

Further records follow.
SMILES | nsP2pro primary
CCOC(=O)c1cc(-c2ccc(C)cc2)nn1Cc1ccccc1 | -23%
N[C@@H](CO)C(=O)Nc1ccc(Cl)cc1C(=O)c1ccc[nH]1 | -4%
O=C(CC1N=C2c3ccccc3N=C(SCc3ccccc3F)N2C1=O)NCc1ccc2c(c1)OCO2 (stereo unspecified) | -11%
Cc1nc2ccccc2c(=O)n1-c1ccc(NC(=O)C(F)(F)F)cc1 | -3%
O=C(Nc1ccc(=O)n2c1[C@@H]1C[C@@H](CN(S(=O)(=O)c3ccccc3)C1)C2)c1ccco1 | -19%
Cc1ccsc1CN1CCc2nc(Nc3ccccc3)ncc2C1 | 2%
COc1cc2c(cc1OC)[C@H]1C[C@@H](OC(=O)[C@@H](N)C(C)C)[C@H](CC(C)C)CN1CC2 | -27%

Source: PubChem
